High-throughput results (PubChem BioAssay)
GLS inhibitor = inhibitors of human glutaminase (GLS). GLS enzymatic activity, qHTS titration. Potency, µM (titrated, usually from 45.5 µM), for the others: at the highest dose activity change, negative = inhibition, most hits filed as inhibitors. hit rate 0.21% among 410,000; note: potency is the fitted concentration of half-maximal effect; % is set by controls: 0 for no effect and ±100 for the full control effect
Target sequence (O94925 whole entry, looked up): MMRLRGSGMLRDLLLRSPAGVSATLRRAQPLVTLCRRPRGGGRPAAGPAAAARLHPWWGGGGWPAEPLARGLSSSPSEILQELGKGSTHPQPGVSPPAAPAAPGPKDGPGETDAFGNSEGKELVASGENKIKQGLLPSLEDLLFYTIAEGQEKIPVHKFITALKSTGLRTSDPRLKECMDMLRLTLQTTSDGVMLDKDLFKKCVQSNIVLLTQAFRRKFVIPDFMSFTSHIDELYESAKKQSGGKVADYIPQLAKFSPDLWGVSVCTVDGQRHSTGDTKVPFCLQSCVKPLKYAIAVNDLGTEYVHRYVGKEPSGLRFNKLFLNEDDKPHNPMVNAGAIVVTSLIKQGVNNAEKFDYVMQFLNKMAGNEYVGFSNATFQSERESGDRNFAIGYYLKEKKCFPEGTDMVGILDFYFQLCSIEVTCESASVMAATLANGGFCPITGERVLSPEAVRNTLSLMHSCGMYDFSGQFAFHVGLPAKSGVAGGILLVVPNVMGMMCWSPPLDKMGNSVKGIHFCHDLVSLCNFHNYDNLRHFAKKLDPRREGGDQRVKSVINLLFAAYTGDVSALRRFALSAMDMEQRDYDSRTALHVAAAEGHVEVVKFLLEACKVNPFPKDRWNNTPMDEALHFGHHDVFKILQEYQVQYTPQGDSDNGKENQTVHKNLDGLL
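hKGA in 45 mM KH2PO4 pH 8.2, 0.02% Tween-20 with pin-transferred compounds; 1 mM L-glutamine (stock) plus glutamate oxidase/HRP/Amplex Red coupling added. Fluorescence read initially and after 30 min at RT.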
PI4K2A inh = blocks human PI4K2A kinase activity | Q9BTU6 | purified PI4K2A, ADP-Glo luminescence, 1 h; hits give low values | activity change, negative = inhibition, % at 76.9 µM | hit rate 0.13% among 420,000 | AID 1346378; in the data active = activity change below about -50%; inconclusive = mostly about -30% to -49%;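 note: -100% = wells without enzyme as full effect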
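PI4K2A activity was measured by ADP-Glo luminescence: enzyme (4 ug/mL stock) and phosphatidylinositol (1.2 mM stock) in Tris pH 7.5/MgCl2/EGTA/Triton X-100 buffer were reacted with ATP (300 microM stock) for one hour at ambient temperature.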
G9a block = inhibitors of human histone lysine methyltransferase G9a. Q96KQ7. hit rate 8.8% among 350,000. Potency, µM (top dose mostly 102 µM), without a hit: at the highest dose activity, negative = inhibition, most hits filed as inhibitors. G9a H3K9 monomethylation, AlphaScreen, 2 h; note: potency is the fitted concentration of half-maximal effect; % is set by controls: 0 for no effect and ±100 for the full control effect; nearly all actives have a fitted effect of over 75% in size
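Chemiluminescent proximity detection of H3K9 monomethylation, read after 10 min bead incubation in the dark. Reaction: 20 nM G9a, 500 nM biotin-H3K9 peptide, 20 uM SAM cofactor, 2 h, room temperature, following 15 min enzyme-compound preincubation.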
ERG Ets-DNA blk = inhibitors of human ERG Ets domain-DNA interaction; fluorescence polarization, His-ERG Ets domain / labelled DNA; P11308; Potency, µM (series often up to 76.9 µM), without a hit: at the highest dose FP activity, negative = inhibition, actives largely listed as inhibitors; hit rate 0.028% among 370,000; active = well fitted inhibition curve with a large enough effect in the polarisation, with a control signal flat; inconclusive = small, poorly fitted or top-dose-only effect, or effect the other way, or a change in a side signal; inactive = no such curve, though single readings can be large or run the other way; the % refers to the polarisation;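 note: polarization taken with two DNA probes labelled with fluorescein and Texas red; potency is the fitted concentration of half-maximal effect; % of control where 0% means no effect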
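His-tagged ERG Ets domain (1 uM in the protein solution; 300mM KCl, 50mM Tris-HCl, 1mM EDTA, 1mM DTT, pH 7.5) received compound, then a probe mix of 5 nM fluorescein-DNA and 100nM Texas-615-DNA. Fluorescence polarization was read for both dyes.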
RGS4 inh = inhibitors of human regulator of G protein signaling 4; hit rate 0.039% among 390,000; P49798; Transcreener GDP fluorescence polarization, RGS4-accelerated GTP hydrolysis; Potency, µM (doses to about 114 µM), without a hit: at the highest dose activity change, negative = inhibition, most hits filed as inhibitors; note: potency is the fitted concentration of half-maximal effect; % is set by controls: 0 for no effect and ±100 for the full control effect; nearly all actives have a fitted effect of over 75% in size; some results filed as inactive show a strong effect at the top dose
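MLSMR compounds (23 nl, pin-transferred) preincubated 10 min at room temperature with a 500nM (2x) first reagent, then RGS4 at 900nM (2x) plus Transcreener GDP mix added; fluorescence polarization (620/688 nm) read before and after 90 min at 30 °C.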
12-LOX inh = inhibitors of human 12S-lipoxygenase ALOX12 | hit rate 1.1% among 580,000 | AID 1671190 | purified 12hLO, xylenol orange hydroperoxide absorbance | Potency, µM (doses to about 108 µM), for inactives: top-dose activity change, negative = inhibition, usual class: inhibitors | P18054; note: potency is the fitted concentration of half-maximal effect; % is set by controls: 0 for no effect and ±100 for the full control effect
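Purified human 12hLO (150 nM final) in 25 mM Hepes, 0.01% Triton X-100, pH 7.0 was preincubated 15 min at room temperature with compound. Then 40 uM arachidonic acid was added, 30 min. Hydroperoxide was read by Fe-XO absorbance ratio 573/405 nm.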
HP1b chromo inh = HP1-beta chromodomain-methylated histone interaction inhibition; P83916; Potency, µM (top dose mostly 114 µM), inactives show at the highest dose activity change, negative = inhibition, most hits filed as inhibitors; AID 540317; AlphaScreen HP1-beta / biotin-H3K9me3 peptide binding; hit rate 0.56% among 390,000; note: potency is the fitted concentration of half-maximal effect; nearly all actives have a fitted effect of over 70% in size; inactives centre near 23
Target sequence (P83916 whole entry, looked up): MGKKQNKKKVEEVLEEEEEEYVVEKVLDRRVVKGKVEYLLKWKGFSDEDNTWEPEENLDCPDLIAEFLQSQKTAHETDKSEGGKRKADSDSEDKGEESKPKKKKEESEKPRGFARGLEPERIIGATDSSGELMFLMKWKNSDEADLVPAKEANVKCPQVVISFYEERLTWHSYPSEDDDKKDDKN
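Compound inhibition of the preformed complex between 50 nM HP1-beta and 50 nM biotinylated H3K9me3 peptide was read by AlphaScreen. Buffer was PBS pH 7.4 with 0.01% Tween-20. Incubations ran 30 min at room temperature, with 10 ug/mL donor/acceptor beads.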
* = called active by the depositor; ? = inconclusive; nt = not tested or not shown; [ ] = remark or other dose. Unless noted, calls come from the whole dose curve; as a rule, active = well fitted curve in the direction sought with a large enough effect; inconclusive = small, poorly fitted or top-dose-only effect, or another doubt; inactive = no such curve, though single readings can be large; an effect the other way counts as inactive or inconclusive.

Values run as follows: GLS inhibitor, PI4K2A inh, G9a block, ERG Ets-DNA blk, RGS4 inh, 12-LOX inh, HP1b chromo inh
> CCOC(=O)[C@H](O)[C@@H](O)c1cccc([C@H](O)[C@@H](O)C(=O)OCC)c1
 : -7.5%, 1.8, nt, -3.3%, 18.6%, -7.2%, 16.1%
> Cc1cccc(NC(=S)NNC(=O)c2ccc(O)cc2O)c1C
 : 29.7%, -2.3, ?, 0.5%, -17.8%, -14.9%, 20.2%
> CC(/C=N/n1c(COc2ccccc2)n[nH]c1=S)=C\c1ccco1
 : ?, 11.5, 3.16µM*, 4.4%, -46.1%, ?, ?
> C=CCNc1nc(C(=O)OCC(=O)c2ccc(Cl)cc2)cs1
 : -25.9%, -5.8, 50.1µM*, 3.0%, -12.0%, ?, -38.1%
> CCn1c(COc2ccc(Cl)cc2)nnc1SCC(=O)Nc1ccc2c(c1)OCO2
 : -14.4%, -7.2, ?, -10.3%, 8.1%[11.4 µM], 20.6%, 30.7%
> CCOC(=O)CNC(=O)CSc1nnc(COc2ccc(Cl)cc2)n1CC
 : -7.4%, 5.4, 20µM*, 0.1%, -7.9%, 4.0%, 47.2%
> COc1ccccc1N1CCN(C(=O)c2cc(-c3ccc(Cl)cc3)on2)CC1
 : -2.4%, 2.3, ?, 7.8%, -3.1%, -8.5%, 53.7%[activator]
> COc1ccc(S(=O)(=O)N2CCN(C(=O)C3COc4ccccc4O3)CC2)cc1 (centres undefined)
 : ?, -7.6, ?, -0.1%, -26.3%, 39.8µM*, ?
> O=C(CSc1nc2nc(-c3cccs3)cc(C(F)(F)F)c2c(=O)[nH]1)C(F)(F)F
 : 19.7%, -3.6, 79.4µM*, -0.5%, -34.9%, 24.0%, 52.5%[activator]
> C/C(=N\NC1=NCCN1)c1ccc(N)c([N+](=O)[O-])c1
 : 4.0%, 18.0, nt, 5.4%, 3.3%, -2.3%, -10.6%
> CCN(CC)S(=O)(=O)c1ccc(N/N=C/c2ccccc2OCC(=O)O)c([N+](=O)[O-])c1
 : -5.4%, -7.6, 39.8µM*, 4.4%, -6.1%, -19.1%, -14.9%
> O=C(COC(=O)c1ccccc1)NCc1ccco1
 : 3.2%, -9.9, -5.0%[59 µM], -1.0%, 10.7%, 361.5%[activator], -11.8%
> O=C(COC(=O)c1ccccc1Oc1ccccc1)NCc1ccco1
 : 0.9%, -13.3, 44.7µM*, 0.0%, 0.5%, ?, ?
> Cc1ccccc1Nc1ccc(S(=O)(=O)N2CCOCC2)cc1[N+](=O)[O-]
 : 2.7%, -6.2, ?, -15.2%, -27.5%, -17.4%, ?
> O=C(NNC(=S)NC1CCCCC1)c1ccccc1O
 : 16.1%, -2.9, 9.4%, -6.3%, 28.2%, -9.2%, 22.3%
> CC(=O)N(CCC(c1ccccc1)c1ccco1)Cc1cccs1 (centres undefined)
 : -2.7%, -2.1, ?, -6.1%, ?, ?, 12.1%
> COc1ccc(Nc2ncnc3c2cnn3Cc2ccccc2)cc1OC
 : 2.7%, 2.2, 21.6%, nt, 5.5%, -13.6%, 13.8%
> C=CCn1c(CSc2nc3ccccc3s2)nnc1SCC(=O)NCc1ccco1
 : -0.9%, 4.0, 44.7µM*, -2.8%, -11.6%, 0.0%, 35.0%
> CCOC(=O)C(CCSC)NC(=O)CN (centres undefined)
 : -1.6%, 1.1, ?, 1.6%, 9.9%, 0.0%, 0.2%
> CCn1c(COc2ccc(C)cc2)nnc1SCC(=O)Nc1ccc(S(N)(=O)=O)cc1
 : 0.1%, -1.1, -2.6%, -9.1%, 20.6%, ?, 17.4%

The closing 5 records of the section above are carried over, then new ones follow:
Values run as follows: GLS inhibitor, PI4K2A inh, G9a block, ERG Ets-DNA blk, RGS4 inh, 12-LOX inh, HP1b chromo inh
> CC(=O)N(CCC(c1ccccc1)c1ccco1)Cc1cccs1 (centres undefined)
 : -2.7%, -2.1, ?, -6.1%, ?, ?, 12.1%
> COc1ccc(Nc2ncnc3c2cnn3Cc2ccccc2)cc1OC
 : 2.7%, 2.2, 21.6%, nt, 5.5%, -13.6%, 13.8%
> C=CCn1c(CSc2nc3ccccc3s2)nnc1SCC(=O)NCc1ccco1
 : -0.9%, 4.0, 44.7µM*, -2.8%, -11.6%, 0.0%, 35.0%
> CCOC(=O)C(CCSC)NC(=O)CN (centres undefined)
 : -1.6%, 1.1, ?, 1.6%, 9.9%, 0.0%, 0.2%
> CCn1c(COc2ccc(C)cc2)nnc1SCC(=O)Nc1ccc(S(N)(=O)=O)cc1
 : 0.1%, -1.1, -2.6%, -9.1%, 20.6%, ?, 17.4%
> Fc1ccc(CSc2ccc3nnc(-c4ccccn4)n3n2)cc1
 : -1.5%, -8.6, 11.8%, 26.3%, -1.1%, 0.6%, 33.1%
> CC(C)(C)c1ccc(OCC(=O)NNC(=O)c2cccnc2)cc1
 : 8.9%, 0.4, 2.2%, -6.0%, 30.4%, 3.1%, 39.0%[activator]
> COc1cc([N+](=O)[O-])c(OC)cc1SCc1n[nH]c(=S)n1-c1ccc(F)cc1
 : ?, -0.7, 8.91µM*, 11.4%, ?, 44.7µM*, 1.4%
> Cc1cccc(C)c1Nc1nnc(SCC(=O)Nc2sccc2C#N)s1
 : 8.1%, -18.7, -7.5%[59 µM], -7.1%, -2.0%, -10.1%, -5.0%
> O=C(c1ccco1)N1CCN(c2ncnc3sc4c(c23)CCC4)CC1
 : -0.6%, -5.9, ?, 8.0%, -25.6%, ?, -7.5%
> Oc1cc(NCc2ccccc2)cc2cccnc12
 : nt, nt, 4.6%[12.7 µM], nt, nt, nt, nt
> CN(C)c1ccc(O)c2c1CC1CC3[C@@H](N(C)C)C(=O)C(C(N)=O)C(=O)[C@]3(O)C(=O)C1C2=O (some centres undefined)
 : 13.4%, -11.7, nt, 6.2%, -22.0%, 1.8%, 15.8%
> COC(=O)C1C(O)=C(C=Nc2cccc3ccccc23)C(=O)CC1(C)C (centres undefined)
 : 1.9%, -1.0, 6.8%, -4.4%, 10.5%, ?, 74.2%[activator]
> O=C(NCc1ccco1)c1ccc([N+](=O)[O-])o1
 : 213.1%[activator], -7.5, 44.7µM*, 3.7%, 3.1%, 354.8%[activator], ?
> Cc1ccccc1OCC(=O)Nc1ccc([N+](=O)[O-])cc1
 : 3.1%, -2.5, -11.9%[0.501 µM], -8.9%, 7.0%, 1.1%, 9.0%
> Cc1cc(C)c(S(=O)(=O)NCc2ccc3c(c2)OCO3)cc1C
 : -4.1%, -1.0, -1.3%, -3.0%, -12.9%, 10.4%, ?
> Cc1ncc(CO)c(/C=N/NC(=O)c2ccc(O)cc2)c1O
 : 15.2%, 3.3, -1.0%, 1.3%, -2.4%, -12.8%, 22.7%
> Cc1[nH]c2ccccc2c1C1(O)C(=O)N(Cc2ccc3c(c2)OCO3)c2ccccc21 (centres undefined)
 : -6.5%, 7.0, nt, 0.2%, -40.9%, -23.6%, -27.6%

Part of the list above, tab-delimited.
Compound	GLS inhibitor	PI4K2A inh	G9a block	ERG Ets-DNA blk	RGS4 inh	12-LOX inh	HP1b chromo inh
CN(C)c1ccc(O)c2c1CC1CC3[C@@H](N(C)C)C(=O)C(C(N)=O)C(=O)[C@]3(O)C(=O)C1C2=O (some centres undefined)	13.4%	-11.7	nt	6.2%	-22.0%	1.8%	15.8%
COC(=O)C1C(O)=C(C=Nc2cccc3ccccc23)C(=O)CC1(C)C (centres undefined)	1.9%	-1.0	6.8%	-4.4%	10.5%	?	74.2%[activator]
O=C(NCc1ccco1)c1ccc([N+](=O)[O-])o1	213.1%[activator]	-7.5	44.7µM*	3.7%	3.1%	354.8%[activator]	?

The list is partial (hit frequency here may not be typical).
